Calb FLC = C. albicans growth modulation with fluconazole. actives 0.57% (n = 300,000). C. albicans CaCi-2 (fluconazole-resistant clinical isolate) + fluconazole, Alamar Blue growth, 48 h. AID 1979. growth inhibition, % (concentration not given with the values);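 active means most replicates above 75%; inconclusive means exactly half above 75%; inactive means most below 75%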;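 further: all wells also contain fluconazole at 8 µg/ml as a sub-toxic cotreatment; 0% = median of DMSO wells and 100% = median of geldanamycin control wells; wells of about 8 µL received 7.5 nL stock; the first replicate is given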
T cruzi repl = T. cruzi replication inhibition; T. cruzi beta-gal in NIH3T3, luminescence, 90 h; inhibition, % (test concentration not listed); actives 1.4% (n = 300,000);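 active means mean inhibition across valid replicates above about 55%, limit read from the data; inconclusive means mean below that limit but half or more replicates reach it; inactive means mean below it, under half of replicates reach it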;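 further: signal also drops with host cell toxicity which is not excluded here; 0% = plate median of DMSO wells and 100% = zero luminescence signal; higher percent means less beta-gal luminescence so fewer parasites; stock transfer was 50 nL into about 50 µL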
Beta cell apopt = beta cell apoptosis inhibition. AID 435005. protection from apoptosis, % (no concentration beside the values). actives 0.8% (n = 300,000). INS-1E cytokine-induced death, ATP luminescence, 48 h; percent of positive-control rescue, neutral wells zero;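 active means all replicates at 75% or more, or half of them and the mean; inconclusive means half reach 75% but not the mean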;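 further: 0% = cytokine-treated negative control wells and 100% = positive control rescue; higher means more ATP so stronger rescue from cytokine killing; wells of about 40 µL received 100 nL stock; the first replicate is given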
rRNA inh HTS = selective bacterial rRNA inhibition in E. coli. E. coli WT GFP vs humanized-ribosome RFP mutants, fluorescence, 24 h; stronger effect = lower value; DMSO median 0, no signal -100. GFP signal change (wild-type ribosome), % (concentration not given with the values). actives 1.6% (n = 350,000);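 active means significant combined selectivity score with lowered wild-type GFP, culture density cut under 30%, mutant RFP and density less affected; inactive means any of these conditions unmet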; further: one replicate is shown; some compounds called inactive have numbers as strong as hits
LANA-H2B inh = blocks KSHV LANA binding to histone H2A/H2B. Q9QR71. cell-free LANA-H2A/H2B peptide, fluorescence polarization. inhibition, % (no concentration beside the values). actives 0.6% (n = 320,000). AID 2629; in the data active means inhibition mostly above about 10%, no sharp cut-off; inactive means mostly below about 6.7%;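 further: stock transfer was 7.5 nL into about 10 µL; 0% = median of vehicle wells and 100% = median of positive control wells; one replicate is shown; the record names a cut of 25% in any replicate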
Target sequence (Q9QR71 whole entry, looked up): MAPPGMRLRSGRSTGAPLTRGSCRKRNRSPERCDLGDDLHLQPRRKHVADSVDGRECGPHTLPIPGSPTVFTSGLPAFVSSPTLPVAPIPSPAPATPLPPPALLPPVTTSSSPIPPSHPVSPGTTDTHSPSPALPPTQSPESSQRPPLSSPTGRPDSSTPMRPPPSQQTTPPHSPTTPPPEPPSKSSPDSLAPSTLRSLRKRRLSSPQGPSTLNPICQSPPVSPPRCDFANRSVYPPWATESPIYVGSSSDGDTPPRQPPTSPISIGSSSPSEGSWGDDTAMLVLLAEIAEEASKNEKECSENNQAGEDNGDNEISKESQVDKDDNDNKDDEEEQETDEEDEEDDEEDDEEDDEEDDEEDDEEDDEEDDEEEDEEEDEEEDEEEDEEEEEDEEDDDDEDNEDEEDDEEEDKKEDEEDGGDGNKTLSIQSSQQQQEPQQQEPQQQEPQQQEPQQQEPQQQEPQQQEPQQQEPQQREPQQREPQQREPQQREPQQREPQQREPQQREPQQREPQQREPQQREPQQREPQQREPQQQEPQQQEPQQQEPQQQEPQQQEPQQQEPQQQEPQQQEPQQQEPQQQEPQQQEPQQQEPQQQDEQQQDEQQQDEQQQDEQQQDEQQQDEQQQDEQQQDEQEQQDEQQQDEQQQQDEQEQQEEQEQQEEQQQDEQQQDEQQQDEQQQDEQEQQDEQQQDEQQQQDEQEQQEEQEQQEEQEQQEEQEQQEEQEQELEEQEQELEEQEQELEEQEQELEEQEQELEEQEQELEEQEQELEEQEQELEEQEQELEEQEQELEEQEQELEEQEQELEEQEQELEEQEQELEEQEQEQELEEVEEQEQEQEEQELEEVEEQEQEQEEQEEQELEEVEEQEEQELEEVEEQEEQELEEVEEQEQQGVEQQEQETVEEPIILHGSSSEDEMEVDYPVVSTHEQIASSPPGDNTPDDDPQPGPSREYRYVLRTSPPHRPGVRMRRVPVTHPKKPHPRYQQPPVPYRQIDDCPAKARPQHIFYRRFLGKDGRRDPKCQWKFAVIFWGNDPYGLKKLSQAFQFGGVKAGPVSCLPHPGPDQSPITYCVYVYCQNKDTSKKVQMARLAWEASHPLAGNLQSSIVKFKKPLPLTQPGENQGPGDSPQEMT
ALR inh = human ALR oxidase inhibition via reduced H2O2 | actives 3.8% (n = 290,000) | P55789 | AID 485317 | inhibition, % (concentration not given with the values) | purified ALR, DTT oxidation, H2O2 HRP-luminol luminescence;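 active means mean and each replicate at 75% or more; inconclusive means only one of the two met; inactive means neither met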;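 further: stock transfer was 7.5 nL into about 7.5 µL; 0% = neutral wells and 100% = wells with inactivated enzyme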
A1 inh = inhibitors of the anti-apoptotic protein A1, read as caspase activation. MEF A1-2A-BIM cells, Caspase-Glo 3/7 luminescence, 3 h; percent of clofoctol response, vehicle zero. caspase activation, % (no concentration beside the values). actives 0.066% (n = 330,000);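 active means over half of replicate activation scores above 10%, or exactly half above 10 with the replicate mean above 10; inconclusive means replicate mean below 10 yet half the replicates above 10; inactive means over half of replicates below 10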;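 further: wells of about 30 µL received 50 nL stock; many hits fall short of the cut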
Beta2AR agonist = activates human beta-2 adrenergic receptor causing internalization; P07550; Am2.2-beta2AR cells, FAP receptor internalization, flow cytometry; reference of the scale not given here; actives 0.43% (n = 340,000); response, % (no concentration beside the values); AID 504454;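 active means response above a set limit, near 3 SD of response in nonfluorescent compounds, cut at about 42% in these data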;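 further: stock transfer was 100 nL into about 11 µL; a reference agonist was the positive control; negative values mostly stem from fluorescent compounds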
rRNA inh HTS OD600 = also measured in rRNA inh HTS; calls as there; OD600 change, %; measured here: OD600 growth;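 optical density of the mix in the first replicate; 0 = DMSO median and -100 = no signal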
rRNA inh HTS RFP = further read-out of rRNA inh HTS, marked with its call; RFP signal change, %; measured here: RFP humanized mutant strains;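 first replicate; 0 = DMSO median and -100 = no signal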
Numbers without * were called inactive; u = inconclusive; x = no result given; & = joins results of further samples. This is a subset; count on the stated rates, not on these rows.

Sequence of screens – Calb FLC	T cruzi repl	LANA-H2B inh	rRNA inh HTS RFP	rRNA inh HTS OD600	Beta cell apopt	ALR inh	rRNA inh HTS	A1 inh	Beta2AR agonist
CCSc1nnc(NC(=O)c2ccccn2)s1
    62	40	5.6	x	x	64	2	x	-0.4	1
O=S(=O)(c1cccs1)N1CCN(CC(O)COc2cc(Cl)ccc2Cl)CC1 (stereo not drawn)
    x	x	4.0	-4.7	-43	83*	-1	-24	0.3	4
O=c1c2c(nc3nc(NCc4cccc(Cl)c4)[nH]n13)CCC2
    -11	-14	5.3	-1.9	6	-9	6	4	-0.7	-8
Cc1cccc(C(=O)NC(=S)Nc2ccc3[nH]c(=O)[nH]c3c2)c1
    u	-18	2.8	0.0	10	-1	-12	13	-0.2	-4
COc1ccc(CSc2nncn2C)cc1[N+](=O)[O-]
    6	-21	1.2	x	x	-6	5	x	0.7	7
CCOc1cc(C(=O)OCC(=O)NCc2ccco2)cc(OCC)c1OCC
    -6	-5	-4.2	x	x	-8	3	x	0.4	1
C=CCNC(=O)c1cc(Cl)cc(Cl)c1
    12	-3	1.6	-0.3	-2	-5	-1	-1	0.2	0
CC(NC(=O)c1ccccc1)C(=O)N/N=C/c1ccc(O)cc1 (stereo not drawn)
    -3	-14	-4.6	1.8	7	-5	99*	5	0.4	1
Cc1cccc(NC(=O)/C=C/c2ccc(Cl)cc2)n1
    5	-60	2.1	x	x	-6	8	x	-6.3	12
O=C1NC(c2ccccc2)=NC1(NS(=O)(=O)c1ccccc1)C(F)(F)F (stereo not drawn)
    4	-7	4.7	x	x	3	-20	x	0.5	3
O=C(NCC(c1cccnc1)N1CCN(c2ccccc2F)CC1)c1ccco1 (stereo not drawn)
    -4	39	4.0	2.4	4	-3	-3	-2	0.5	2
COc1ccc2[nH]cc(C(=O)CN(C)CCc3ccc(OC)c(OC)c3)c2c1
    -3	20	0.3	x	x	-2	-15	x	0.4	1
O=C(O)C(Cc1ccccc1)N1C(=O)/C(=C/c2ccccc2)SC1=S (stereo not drawn)
    5	8	-4.1	x	x	-1	5	x	0.6	7
O=C(NCCS(=O)(=O)N1CCN(c2ccccc2)CC1)C1CC1
    -7	-10	-0.9	-1.1	0	5	15	2	0.7	-1
CCCS(=O)(=O)N1CCN=C1SCc1cccc(C)c1
    -23	-3	-3.8	x	x	-5	-6	x	0.9	1
N#C/C(=C\c1cccnc1)C(=O)Nc1ccccc1[N+](=O)[O-]
    -2	-4	-1.4	4.6	15	-4	-31	18	1.1	22
Cc1ccsc1C(=O)N/N=C/C=C/c1ccccc1[N+](=O)[O-]
    1	6	-2.6	x	x	3	-2	x	-5.0	17
CCN(C(=O)c1ccc(Cl)c([N+](=O)[O-])c1)c1ccccc1
    1	-2	-1.7	-3.9	8	3	20	-1	0.3	0
O=C(CCCCCNC(=S)Nc1ccc(Cl)cc1)C[N+](=O)[O-]
    14	8	-0.5	1.4	-6	3	7	-12	0.1	-1
CCOC(=O)c1c(C)[nH]c(C(=O)COC(=O)C(C)N2C(=O)C3CCCCC3C2=O)c1C (stereo not drawn)
    -4	7	-3.9	x	x	-6	6	x	-0.7	12
c1ccc(-n2nnnc2-c2cccnc2)cc1
    -3	-2	6.6	-0.4	10	-4	-10	13	-0.1	0
O=C(COC(=O)c1cncc(Br)c1)NCc1cccs1
    x	x	-1.2	-0.3	7	-6	x	7	0.2	-2
O=C(COc1cc2oc(=O)c3c(c2cc1Cl)CCCC3)NCc1cccnc1
    -9	8	-0.5	-2.8	-11	0	-6	-11	-0.7	-17
Cc1nc(N)nc(Nc2ccc(Cl)cc2)c1Br
    -27	1	-6.9	x	x	-4	x	x	-0.1	6
COc1cc(NC(=O)CNC(=O)Cn2c(C)cc3ccccc3c2=O)cc(OC)c1OC
    48	-12	-6.2	-2.4	2	-5	x	8	0.4	0
Cc1ccc(C)c(NC(=S)c2ccc3ccccc3n2)c1
    -2	-6	2.4	-3.5	19	3	x	15	-4.2	-2
CCOC(=O)Cc1csc(NC(=O)Cc2ccc(C)cc2)n1
    -14	-7	-0.8	0.6	-7	-2	x	-8	-0.9	0
CCn1cc(C(=O)O)c(=O)c2cc(F)c(N/N=C/c3ccccc3[N+](=O)[O-])cc21
    -19	34	4.2	-15	-15	97*	-12	-5	u	6
Cc1ncc(CN=Cc2ccc(Cl)cc2)c(N)n1
    -4	-1	1.5	-2.2	8	-4	6	4	1.4	5
Nc1ccccc1SCC1CSc2nc3ccccc3c(=O)n21 (stereo not drawn)
    7	-6	6.9	2.5	7	6	0	4	-0.1	-1

New compounds follow.
Sequence of screens – Calb FLC	T cruzi repl	LANA-H2B inh	rRNA inh HTS RFP	rRNA inh HTS OD600	Beta cell apopt	ALR inh	rRNA inh HTS	A1 inh	Beta2AR agonist
O=C(Cc1cccc2ccccc12)NC(=S)Nc1cccc(C(=O)O)c1
    3	-19	1.5	-12	-48	x	9	-37	1.3	3
CCCCN1C(=O)C(=O)N(CC(=O)Nc2sc(C)c(C)c2C(=O)OC)C1=O
    x	x	4.3	-2.8	-6	0	x	-4	0.0	0
FC(F)C(F)(F)c1cc(-c2ccccc2)n[nH]1
    5	5	2.2	0.1	11	4	-2	-9	-0.3	7
COC(=O)c1ccc(NC(=O)C2CCCO2)cc1 (stereo not drawn)
    -16	-6	-2.1	x	x	6	x	x	2.2	-1
Cc1cc(Cl)cc(C)c1OCCCCn1ccnc1
    -22	u	-0.6	x	x	-3	-30	x	0.1	-1
COc1ccc(NC(=O)CCc2nnc3ccc(NCc4ccc5c(c4)OCO5)nn23)cc1
    -1	7	1.7	-0.4	5	3	-9	1	0.0	-2
O=c1[nH]c(=S)n(-c2cccc(Cl)c2)c(O)c1/C=N/N1CCOCC1
    -3	-17	-1.9	0.3	1	1	29	2	0.6	4
CCN1C(=O)/C(=C/N2CCc3ccccc32)SC1=S
    -3	0	7.5	x	x	0	-19	x	-5.6	-5
O=C(COc1coc(CN2CCc3ccccc3C2)cc1=O)Nc1ccc([N+](=O)[O-])cc1
    -2	21	-0.4	-1.4	5	x	x	-1	0.0	3
CC1(C)CC(=O)c2cnc(NC(=O)CSc3nc4ccccc4o3)nc2C1
    -1	-9	-8.4	x	x	-3	-19	x	0.4	-4
CC(C)c1ccc(N(CC(=O)NCc2ccco2)C(=O)CCC(=O)Nc2ccccn2)cc1
    26	-7	3.1	-1.1	2	-3	-2	1	-1.2	-8
CC(C)(C)c1nc2ccc(NS(=O)(=O)c3ccc(F)c(F)c3F)cc2[nH]1
    5	-11	2.0	5.0	-5	-10	-11	-14	0.6	-3
O=C(c1cc(-c2cccc(O)c2)on1)N1CCN(C(c2ccccc2)c2ccccc2)CC1
    -2	25	-4.6	0.6	3	81*	2	5	u	15
COC(=O)c1nc(NC(=O)c2cc(OC)c(OC)c(OC)c2)n[nH]1
    -2	-17	6.0	-3.1	6	x	98*	4	0.9	-6
Nc1c(C(=O)CSc2nccn2-c2ccc(Cl)cc2)c(=O)[nH]c(=O)n1C1CC1
    x	x	-0.1	-1.4	-3	-5	3	-2	0.9	4
O=C(O)C1CC(c2cccc(Br)c2)=NO1 (stereo not drawn)
    4	-17	0.1	x	x	x	-10	x	0.4	4
Cc1cc(C)cc(NC(=O)c2ccc(S(=O)(=O)NCc3cccnc3)cc2)c1
    1	-7	-1.4	0.1	-16	4	-5	-12	0.5	6
Cc1cccc(OCc2nnc(SCc3nc4ccccc4c(=O)[nH]3)o2)c1
    0	6	1.8	x	x	8	6	x	0.0	-2
O=C(Cn1nc(-c2ccccc2)ccc1=O)Nc1ccc(N2CCN(C(=O)c3ccccc3)CC2)cc1
    -2	19	-1.5	x	x	1	-2	x	u	10
COc1ccc(N2CCN(C3CCCN(S(=O)(=O)c4ccccc4)C3)CC2)cc1 (stereo not drawn)
    -4	7	-1.3	2.9	-6	1	45	-5	1.0	6
O=C(C1CCCN(S(=O)(=O)c2ccc(F)cc2)C1)N1CCCC1 (stereo not drawn)
    1	-8	4.9	x	x	-3	-4	x	-0.2	-7
CCc1ccccc1N(CC(=O)NCc1ccco1)C(=O)c1snc(C(N)=O)c1N
    10	-9	4.9	x	x	-2	-4	x	0.2	-2
Clc1ccc(-c2cn3c(n2)-c2ccccc2C3)cc1Cl
    12	20	x	x	x	9	x	x	-1.0	-5
Cc1cc(-c2cc(C(=O)Nc3ccccc3)on2)nc(NCC2CC2)n1
    0	15	-3.3	-5.2	1	-3	0	3	-0.4	-6
O=C(Nc1cnn(Cc2ccc(Cl)cc2)c1)C1CCCC1
    10	1	-8.1	x	x	0	-1	x	0.2	-3
CCN(CC)S(=O)(=O)c1cc(NC(=O)CSCc2c(C)noc2C)ccc1C
    x	x	3.9	x	x	-3	-5	x	-2.3	-2
Cc1cc2ncn(CC(C)C)c2cc1C
    9	0	2.5	-4.9	-4	x	-7	5	2.3	2
CC1=CC(C)=Nc2ccc(C)cc2N1
    23&-9	27&15	-1.6&0.0	x	x	-3&-2	1&22	x	0.7&0.1	1&2
N/C(COc1ccc(Cl)cc1Cl)=N\NS(=O)(=O)c1ccccc1
    13	-6	0.6	x	x	x	19	x	-0.6	2
O=C(NNC(=O)[C@H]1CC=CC[C@H]1C(=O)O)c1ccc(Cl)cc1Cl
    5	3	-6.0	-7.3	4	1	0	6	1.4	0
O=C(Cn1nnc(-c2ccc(S(=O)(=O)N3CCCC3)cc2)n1)NCC1CCCO1 (stereo not drawn)
    -5	1	-5.4	x	x	-6	-1	x	0.1	-2
